High-throughput results as filed in PubChem BioAssay.
D2 agonist – agonists of human D2 dopamine receptor (beta-arrestin); AID 624465; 360,000 tested, 0.084% active; P14416; DiscoveRx PathHunter D2 beta-arrestin, luminescence, 90 min; 100% = 57 uM dopamine signal; activation, % (test concentration not listed); in the data active = activation above about 40%; inconclusive = about 15% to 40%; inactive = below about 15%; also: compound concentration not given in the record; the text of the record calls up to 30% inactive
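DiscoveRx PathHunter D2 beta-arrestin cells (2,100/well) attached overnight, then compound-stimulated 90 min at 37 C in HBSS/10 mM HEPES/0.1% Tween-20 buffer; beta-galactosidase complementation read by luminescence after 1 h at ambient temperature. Dopamine 57 uM final (EC100) as control.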
PINK1 expr mod – changes PINK1 expression; PINK1 immunofluorescence, high-content cytometry, 24 h; Potency, µM (doses to about 76.6 µM), inactives show at the top dose activation (PINK1 increase), hits mostly activators; 410,000 tested, 0.2% active; AID 624263; active = well fitted activation curve with a large enough effect; inconclusive = small, poorly fitted or top-dose-only effect; inactive = flat fitted curve, though single readings scatter; cell line not stated here;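 also: potency is read from the fitted curve at half-maximal effect; % of control where 0% means no effect; nearly all actives have a fitted effect of over 65% in size; a mitochondrial uncoupler was the plate control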
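Measures PINK1 amount and localization on or inside mitochondria by immunofluorescence. Stable cells get compounds at 5 concentrations for 24 hours before fixation and staining; CCCP controls included.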
TRPML1 ag – agonists of human TRPML1 channel | Q9GZU1 | TRPML1-expressing cells, Ca2+ dye fluorescence, FDSS; host cell line not named in the record; reference of the full effect not given here | activation, % (concentration not given with the values) | 410,000 tested, 0.12% active | AID 624414; in the data active = activation above about 50%; inconclusive = about 30% to 50%; inactive = below about 30%; also: 0% is about no effect; the text of the record puts the active cut at 80%
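Kinetic FDSS Ca2+ read in Tet-induced TRPML1-DL cells (ABD Ca8 dye plus quencher, 45-90 min RT loading): baseline, then compound, then 110 s agonist window; EC80 agonist 54-4 at 4uM final added afterwards for a 110 s antagonist window.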
D2 potentiator – potentiates the human D2 dopamine receptor allosterically. P14416. DiscoveRx D2 beta-arrestin cells, luminescence, 90 min; 100% = 57 uM dopamine signal. potentiation, % (no concentration beside the values). 360,000 tested, 0.23% active; active = potentiation of 50% or more; inconclusive = 30% to 50%; inactive = 30% or less;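 also: compound concentration not given in the record; tested on top of an EC20 dose of dopamine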
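D2 cells co-treated with compound plus 50 nM dopamine (EC20) for 90 min at 37 deg C to detect potentiation. Beta-arrestin recruitment was read as enzyme-fragment luminescence after 1 h at ambient temperature. Full response was set by 57 uM dopamine.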
Six1-Eya2 blk – blocks human Six1 binding to Eya2; activity change, % (concentration not given with the values); Q15475+O00167; AID 651725; 360,000 tested, 0.56% active; AlphaScreen GST-Six1/His-Eya2 binding, biochemical; stronger effect = lower value; control for the full effect not named in the record; in the data active = activity change below about -65%; inconclusive = about -30% to -65%; inactive = above about -30%; also: % is scaled to controls: 0 for no effect and ±100 for the full control effect
Target sequence (O00167 whole entry, looked up): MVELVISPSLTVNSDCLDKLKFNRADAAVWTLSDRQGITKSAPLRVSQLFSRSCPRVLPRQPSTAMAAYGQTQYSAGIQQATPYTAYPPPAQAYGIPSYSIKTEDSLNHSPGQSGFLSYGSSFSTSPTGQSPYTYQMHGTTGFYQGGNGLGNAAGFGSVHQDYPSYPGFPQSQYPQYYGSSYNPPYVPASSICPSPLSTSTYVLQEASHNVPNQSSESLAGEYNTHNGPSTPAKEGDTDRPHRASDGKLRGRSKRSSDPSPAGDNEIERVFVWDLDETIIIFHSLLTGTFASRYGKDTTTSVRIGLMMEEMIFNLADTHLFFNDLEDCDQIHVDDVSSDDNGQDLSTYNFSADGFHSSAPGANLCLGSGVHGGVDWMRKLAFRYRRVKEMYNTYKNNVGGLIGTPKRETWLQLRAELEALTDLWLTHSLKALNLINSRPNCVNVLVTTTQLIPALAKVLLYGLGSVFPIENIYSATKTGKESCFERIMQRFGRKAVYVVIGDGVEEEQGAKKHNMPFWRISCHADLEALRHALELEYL
Target sequence (Q15475 whole entry, looked up): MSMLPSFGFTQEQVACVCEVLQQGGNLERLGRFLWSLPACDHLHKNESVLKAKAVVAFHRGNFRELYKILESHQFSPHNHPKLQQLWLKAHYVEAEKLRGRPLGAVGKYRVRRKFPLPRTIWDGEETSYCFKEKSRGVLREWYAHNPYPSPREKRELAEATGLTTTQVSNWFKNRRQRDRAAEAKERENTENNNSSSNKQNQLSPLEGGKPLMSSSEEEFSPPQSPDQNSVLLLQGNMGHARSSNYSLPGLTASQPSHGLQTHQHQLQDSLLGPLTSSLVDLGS
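AlphaScreen with GST-Six1 and His-Eya2 (5X mix: 250 nM and 500 nM), glutathione donor and nickel acceptor beads; buffer 50 mM Tris pH 8.0, 300 mM NaCl, 1 mM TCEP; 1 h at 37 C in the dark.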
TRPML1 inh – inhibitors of human TRPML1 channel. activity change, negative = inhibition, % (concentration not given with the values). TRPML1-inducible cells, Ca2+ dye fluorescence, FDSS; stronger effect = lower value; inhibition of EC80 agonist-evoked calcium signal. Q9GZU1. AID 624415. 390,000 tested, 0.02% active; in the data active means activity change below about -50%; inconclusive means about -30% to -50%; inactive means above about -30%;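 also: stimulus is agonist 54-4 at its EC80 concentration; % is scaled to controls: 0 for no effect and ±100 for the full control effect; compound concentration not given in the record; the text of the record puts the active cut at -80%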
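TRPML1-DL cells, Tet-induced overnight (~16 h, 37 °C) at 1,500 cells/well, were loaded with Ca8 no-wash dye plus quencher for 45-90 min at room temperature. Compounds were pinned during FDSS kinetic reading; agonist 54-4 at EC80 (4 uM final) then added.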
* = called active by the depositor; ? = inconclusive; nt = no result given; & = joins results of further samples; [ ] = dose if it differs, or a comment.

SMILES,Six1-Eya2 blk,TRPML1 ag,PINK1 expr mod,D2 potentiator,TRPML1 inh,D2 agonist
O=C(COc1ccc(S(=O)(=O)N2CCOCC2)cc1Cl)NCCCn1ccnc1,-6,-0.8,2.8%,-3,44,-0.6
CCn1c(SCC(=O)Nc2cc(C)on2)nc2c1c(=O)n(C)c(=O)n2C,5,0.7,21%[38.3 µM],0,4,3.8
COC(=O)c1cc(NC(=O)Cn2c(=O)oc3ccccc32)cc(C(=O)OC)c1,17,-0.2,1.4%,-4,-3,-1.4
CC1CC(=O)N(C)c2cc([N+](=O)[O-])ccc2N1 (stereo not given),5,0.1,1.6%,-1,-2,1.3
c1ccc(Nc2nc(CSc3ncn[nH]3)cs2)cc1,-3,-1.5,1.8%,-5,3,-1.5
COc1cccc(CNC(=S)Nc2ccc3c(c2)c(=O)n(C)n3C)c1,0,-0.7,0.0%,10,nt,9.6
CC(=O)OCCCN(C)CC/C=C1/c2ccccc2CSc2ccccc21,-15,0.3,5.9%,-29,-16,-2.2
CC(C)Sc1nnc(SCC(=O)NCCCN2CCCC2=O)s1,6,2.3,1.0%,0,-19,-0.3
CCc1ccc2nc(N(CCN(C)C)C(=O)/C=C/c3cccs3)sc2c1,1,0.4,4.7%,-14,-10,1.0
NC(=O)c1ccccc1NC(=O)CCn1c(=S)oc2ccccc21,-4,-0.3,-0.6%,-1,2,0.5
CC(NC(=O)C(NC(=O)C(Cc1c[nH]c2ccccc12)NC(=O)OC(C)(C)C)C(C)C)C(N)=O (stereo not given),8,0.8,-0.8%,-8,8,-3.5
CCc1nc2ccc(C(=O)Nc3cc(-c4ccccc4)ccc3OC)cn2c1N(C)Cc1ccc(OC)cc1,-3,-0.1,1.7%,-6,nt,4.9
COC(=O)c1ccc(CSc2nc3ccccc3c(=O)n2C)o1,0,1.0,1.1%,-3,-3,0.6
CC(=O)Nc1cnc(-c2cccc(C(=O)N3CCOCC3)c2)cn1,5,0.2,1.0%,0,nt,-3.4
CC1CC(=O)C2=C(C1)Nc1ccccc1N(C(=O)COc1ccccc1)C2c1ccco1 (stereo not given),1,2.5,0.0%,3,9,0.0
O=C(CCC1CCCN(C(=O)c2ccco2)C1)NCc1ccccc1F (stereo not given),-2,-0.6,4.1%,-16,-12,-2.8
Nc1ccc(CC2SC(=O)NC2=O)cc1 (stereo not given),4,4.9,-1.6%,-5,38,1.2
O=C(O)c1cc(NC(=O)c2ccccc2[N+](=O)[O-])ccc1O,-11,0.9,-3.8%,-3,1,-0.6
CCN(CC)c1ccc(NC(=O)CN2CCN(c3ccc(F)cc3)CC2)cc1,?,0.5,-0.8%,-22,10,-2.8
CCOc1ccc(NC(=O)c2cccc(OC(=S)N3CCC(C)CC3)c2)cc1,-6,1.5,-2.1%,16,32,2.2
CCCCn1c(N)c(N(CCC(C)C)C(=O)C2CC(=O)N(c3ccccc3OCC)C2)c(=O)[nH]c1=O (stereo not given),2,-0.3,-0.2%,-22,6,-3.0
CC(C)S(=O)(=O)c1cnc(-c2cccnc2)nc1N,21,0.7,1.3%,0,-9,7.3
CN(C)CCCNS(=O)(=O)c1ccc(Cl)s1,14,0.0,-1.0%,-6,-6,-0.5
O=C(Cc1ccccc1)Nc1ccc(N2CCCC2)cc1,7,0.2,-0.9%,3,-13,-1.5
CCS(=O)(=O)N1CCN(Cc2ccccc2OC)CC1,-1,0.1,0.0%[38.3 µM],-1,-7,-1.1
C#Cc1ccc([C@H]2C=C(C(=O)N3CCN(Cc4ccccc4)CC3)O[C@@H](OCc3ccc(CO)cc3)C2)cc1,-11,0.1,-1.0%,-11,6,1.7
Cc1ccc(-n2nc3c(c2NC(=O)c2cc4ccccc4o2)CS(=O)(=O)C3)cc1,1,1.1,-0.5%,-3,-3,0.7
CN1CCC(N(C)C(=O)COc2ccccc2Cl)CC1,9,-0.4,-2.7%,-3,-8,-2.4
Cn1cc(S(=O)(=O)N2CCOCC2)cc1C(=O)NCc1ccc(Cl)cc1,-4,-0.7,0.7%,-2,3,-4.6
O=c1[nH]c(CN2CCN(S(=O)(=O)c3ccccc3C(F)(F)F)CC2)nc2sc3c(c12)CCCC3,0,-0.6,-0.4%,-1,16,5.6
COCCN(C(=O)COC(=O)/C(=C/c1ccccc1)NC(C)=O)c1c(N)n(Cc2ccccc2)c(=O)[nH]c1=O,8,-0.2,-0.6%,11,12,-2.0
O=C(c1cc(-c2ccc(F)cc2)on1)N1CCCCCC1,6,-1.5,3.2%,-4,-24,-5.8
N#CC1(NC(=O)COC(=O)C2=COCCO2)CCCCC1,1,-0.3,0.7%,-4,8,-4.6
CC1=C(c2ccc(C)c(C)c2)S(=O)(=O)N=C1N1CCN(c2cccc(C(F)(F)F)c2)CC1,nt,-0.5,1.1%,nt,-6,nt
N#C/C(=C\Nc1ccc2c(c1)OCCO2)c1nc(-c2ccccc2)cs1,-1,0.7,6.8%,-4,44,-1.0
COc1ccccc1C(=O)NNc1ncc(C)s1,-3,0.5,0.0%,0,4,6.9
Cc1c(C(=O)NCc2ccccc2)sc2nc3n(c(=O)c12)CCCCC3,nt,-1.2,0.7%,nt,7,nt
O=C(CN1CCCC1)Nc1cc(C(F)(F)F)ccc1Cl,3,-0.1,2.2%,-13,16,-5.6
N=c1sccn1CC(=O)Nc1cc(Cl)ccc1[N+](=O)[O-],6,0.1,1.5%,-1,7,-2.4
N#CCCn1nc(-c2ccccc2)c2ccccc2c1=O,3,0.1,-0.3%,-3,2,-0.5

In the list so far, three have a nitro group on carbon:
SMILES,Six1-Eya2 blk,TRPML1 ag,PINK1 expr mod,D2 potentiator,TRPML1 inh,D2 agonist
CC1CC(=O)N(C)c2cc([N+](=O)[O-])ccc2N1 (stereo not given),5,0.1,1.6%,-1,-2,1.3
O=C(O)c1cc(NC(=O)c2ccccc2[N+](=O)[O-])ccc1O,-11,0.9,-3.8%,-3,1,-0.6
N=c1sccn1CC(=O)Nc1cc(Cl)ccc1[N+](=O)[O-],6,0.1,1.5%,-1,7,-2.4

Going on with the list:
SMILES,Six1-Eya2 blk,TRPML1 ag,PINK1 expr mod,D2 potentiator,TRPML1 inh,D2 agonist
O=C(Nc1ccncc1)C1COc2ccccc2O1 (stereo not given),-12,-0.8,-1.6%,-2,8,-6.2
Cc1ccc(C(=O)NCc2ccccn2)cc1S(=O)(=O)N1CCCCC1,18,0.8,0.5%,-12,22,-3.0
CCc1ccc(NC(=O)C2CCCN(S(=O)(=O)c3c(C)[nH]c(=O)[nH]c3=O)C2)cc1 (stereo not given),0,0.9&-0.3,1.8%&0.5%,-9,26&7,0.3
CC(C)Sc1ncc(Cl)c(C(=O)N(Cc2ccc(F)cc2)C2CCS(=O)(=O)C2)n1 (stereo not given),nt,1.5,0.4%,nt,23,nt
O=C(COC(=O)c1ccc(Cl)c(S(=O)(=O)N2CCCCC2)c1)NC1CCCCC1,-3,-1.2,-0.4%,-2,11,-4.6
Cc1nc2cc(NS(=O)(=O)c3ccc(Br)cc3)ccc2n1C,1,-0.2,-0.8%,-8,-8,0.6
COc1ccc(C)cc1NC(=O)COC(=O)C1COc2ccccc2O1 (stereo not given),9,0.4,2.4%,-2,21,6.7
CCc1ccccc1NC(=O)CNC(=O)c1ccccc1OCc1c(C)noc1C,5,-0.3,-0.3%,9,-5,-4.2
CCN(CC)CCN(C)C1CCC(c2ccccc2)CC1 (stereo not given),-1,0.0,2.1%,-16,-2,-2.5
CCC(C)NC(=O)c1cc2c(=O)n(CC)c3ccccc3c2s1 (stereo not given),4,-1.2,4.6%,-11,22,5.3
Cc1ccc2oc(C(=O)Nc3nc(-c4ccc(F)cc4)ns3)c(C)c2c1,nt,0.7,0.7%,nt,4,nt
CC(C)(C)c1ccc(/C=C/C(=O)c2ccc(NC3=NCCCS3)cc2)cc1,4,0.1,-0.3%,-8,0,-3.2
CCC1CCCCN1S(=O)(=O)c1ccc(NC(=O)c2nc(SC)ncc2Cl)cc1 (stereo not given),nt,?,-0.3%,nt,-14,nt
COc1cccc(C(=O)NCCC2=CCCCC2)c1OC,3,7.3,0.5%,-32,-1,-3.5
CCSc1nnc(N2C(=O)C(O)=C(C(=O)c3ccco3)C2c2cccc(OC)c2)s1 (stereo not given),0,5.8,-0.6%,-3,1,-6.2
CCNC(=O)C1(C)CCCN(Cc2ccc(Oc3ccccc3)cc2)C1 (stereo not given),1,-1.0,0.6%,-14,nt,-4.4
Cc1ccccc1COc1cccc(/C=N/NC(=O)c2nnn(-c3nonc3N)c2C)c1,-1,0.4,4.3%,-3,5,4.4
Cc1cc(C(=O)CN2C(=O)c3cccc(N)c3C2=O)c(C)n1Cc1cccs1,10,1.1,2.2%,25,4,-1.1
CC(=O)c1cccc(S(=O)(=O)Nc2ccc(N3CCOCC3)cc2)c1,3,0.6,-2.6%,-3,39,-8.4
O=C(NCc1cccc(Br)c1)C1CC(c2ccc(C(F)(F)F)cc2)=NO1 (stereo not given),5,1.3,5.6%,-3,-3,1.6
O=C(CSc1nc2ccccc2s1)NCCCN1CCOCC1,5,0.4,11%[38.3 µM],-1,26,-2.3
CC(=O)N1CCCc2cc(S(=O)(=O)N3CCN(c4cccc(C(F)(F)F)c4)CC3)ccc21,nt,3.5,-0.2%,nt,5,nt
O=S(=O)(c1cc(O)ccc1O)c1cccc2c(S(=O)(=O)c3cc(O)ccc3O)cccc12,?,-0.7,0.8%,8,16,3.5
COc1cc2c(cc1NC(=O)C(C)N1CCN(S(=O)(=O)c3ccccc3[N+](=O)[O-])CC1)oc1ccccc12 (stereo not given),-1,0.4,-1.4%[38.3 µM],-5,13,-1.2
CCCN(Cc1cc2ccc(C)cc2[nH]c1=O)S(=O)(=O)c1ccccc1,-10,1.0,-0.6%,-4,6,-5.5
CC1(c2ccc(OC(F)F)cc2)NC(=O)N(CC(=O)Nc2ccc3c(c2)OCO3)C1=O (stereo not given),-12,25,3.7%[38.3 µM],2,-8,-5.3&2.4
O=C(CSc1nnc(Cc2ccccc2)o1)c1ccccc1,1,-0.1,0.7%,-8,-8,-0.7
Cc1cc2oc(C(=O)Nc3ccc(S(=O)(=O)Nc4ncccn4)cc3)cc(=O)c2cc1Cl,-2,0.0,-1.2%,-5,-8,1.7
Cc1cccc(Cn2cc(C(=O)Nc3cc(F)ccc3F)ccc2=O)c1,nt,1.4,-3.8%,nt,-5,nt
OCCN1CCN(C(=S)c2ccc(Cl)cc2)CC1,9,-0.9,0.4%,-9,19,-3.1
Cn1cc(/C=C/c2cc[n+](C)cc2)c2cc(F)ccc21,6,12,11µM*,-10,14,-1.4
